miR-21 reporter: miR-21 reporter, rising signal | Potency, µM (highest dose often 38.3 µM), for inactives: top-dose reporter change, positive = more light | HeLa miR-21 FLuc reporter, luciferase, 48 h | 340,000 tested, under 10 active; active = well fitted rising curve with a large enough effect; inconclusive = small, poorly fitted or top-dose-only effect; inactive = no such curve, though single readings can be large or run the other way;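 note: % of control where 0% means no effect; miR-21 action dims this reporter so a rising signal means less miR-21 action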
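Using DMEM plus 10% FBS, HeLa miR-21-FLuc cells are incubated with test compounds (final up to about 40uM) for 48 hours; firefly luciferase signal is then imaged following reagent-mediated lysis.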
Rango release inh: inhibitors of RanGTP-induced Rango-importin beta complex dissociation | O95149+P62826 | Biochemical FRET Rango-importin beta, RanGTP-induced dissociation | Potency, µM (highest dose often 46.1 µM), for inactives: at the top dose activity change, negative = inhibition | 0.071% of 340,000 active | AID 540253; active means falling FRET ratio curve, often poorly fitted, with flat reads before Ran was added; inconclusive means other falling curves, or compound fluorescence or quenching; inactive means flat or rising ratio curve;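 note: potency is the fitted concentration of half-maximal effect; % of control where 0% means no effect; nearly all actives have a fitted effect of over 45% in size; -100% = wells without RanGTP and RCC1; the record marks most hits as doubtful in a second field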
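Rango (0.1 uM)–importin beta (0.25 uM) complex; RanGTP-RCC1 trigger; 45 min RT; CFP/YFP FRET read.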
Rango complex inh: Rango-importin beta binding inhibition; 0.031% of 340,000 active; Potency, µM (top dose mostly 92.2 µM), for inactives: top-dose inhibition of complex formation; Q14974; Rango CFP/YFP FRET sensor + importin beta, 45 min; active = rising FRET ratio curve, often small or poorly fitted; inconclusive = mostly compound fluorescence or quenching in the first reads; inactive = flat curves in all reads;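 note: potency is the fitted concentration of half-maximal effect; 0% = DMSO wells and 100% = buffer wells lacking importin beta; nearly all actives have a fitted effect of over 15% in size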
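FRET biosensor Rango (snurportin 1 IBB between N-terminal EYFP and C-terminal Cerulean), 50 nM in PBS/1 mM DTT/0.02% Tween-20/0.1% BSA, preincubated 5 min RT with compound; 0.125 microM importin beta added, 45 min RT, CFP/YFP FRET ratio read.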
GLA inh pH 4.5: inhibitors of human alpha-galactosidase A at pH 4.5; purified enzyme, 4-MU-alpha-Gal fluorescence, pH 4.5; activity change, negative = inhibition, % at 105 µM; 230,000 tested, under 10 active; AID 1467; inconclusive = small, poorly fitted or top-dose-only inhibition, or a rising curve; inactive = flat fitted curve, though single readings scatter; no compound was filed as active;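 note: 0% = full activity with enzyme and -100% = basal without enzyme; dose as in the result columns while the protocol names 77 µM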
Target sequence (P06280 whole entry, looked up): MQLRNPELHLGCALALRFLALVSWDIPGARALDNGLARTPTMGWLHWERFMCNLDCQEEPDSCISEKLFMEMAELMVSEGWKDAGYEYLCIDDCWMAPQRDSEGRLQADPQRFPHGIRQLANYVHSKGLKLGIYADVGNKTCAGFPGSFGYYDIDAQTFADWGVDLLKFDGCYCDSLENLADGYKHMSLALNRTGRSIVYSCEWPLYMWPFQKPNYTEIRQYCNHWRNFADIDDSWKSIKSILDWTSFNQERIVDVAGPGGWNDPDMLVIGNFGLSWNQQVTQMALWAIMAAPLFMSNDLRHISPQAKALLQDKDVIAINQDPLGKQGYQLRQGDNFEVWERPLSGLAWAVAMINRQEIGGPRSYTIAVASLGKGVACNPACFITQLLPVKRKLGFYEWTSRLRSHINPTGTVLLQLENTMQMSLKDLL
An asterisk follows results filed as active; ? = inconclusive; nt = not tested or not shown; & = joins results of further samples.

Start of the data: the first four entries as a preview:
nr	miR-21 reporter	Rango release inh	Rango complex inh	GLA inh pH 4.5	SMILES
1	0%	-16%	-1.4%	nt	OCC[C@@H]1C[C@H](O)[C@@H](O)[C@@]2(CCCc3ccccc3O2)O1
2	-2%	-17%	?	nt	O=C(NCCC(=O)N1CCC2(CC1)NCCc1[nH]cnc12)c1cccc(C(F)(F)F)c1
3	-20%	-11%	?	nt	O=C(CSc1ncccn1)N/N=C/c1ccc2c(c1)OCO2
4	nt	-9%	-1.1%	nt	O=C(COC(=O)c1ccc(O)cc1)NC(=O)NCc1ccccc1

Results, from the first entry:
nr	miR-21 reporter	Rango release inh	Rango complex inh	GLA inh pH 4.5	SMILES
1	0%	-16%	-1.4%	nt	OCC[C@@H]1C[C@H](O)[C@@H](O)[C@@]2(CCCc3ccccc3O2)O1
2	-2%	-17%	?	nt	O=C(NCCC(=O)N1CCC2(CC1)NCCc1[nH]cnc12)c1cccc(C(F)(F)F)c1
3	-20%	-11%	?	nt	O=C(CSc1ncccn1)N/N=C/c1ccc2c(c1)OCO2
4	nt	-9%	-1.1%	nt	O=C(COC(=O)c1ccc(O)cc1)NC(=O)NCc1ccccc1
5	-6%	?	?	-13	Cc1cc(Nc2c(C)n(C)n(-c3ccccc3)c2=O)n2c(nc3ccccc32)c1C#N
6	-1%	2%	5.2%	-6	CCOc1ccc(-n2c(SCC(=O)NC3CCS(=O)(=O)C3)nnc2-c2cccnc2)cc1 (stereo not given)
7	nt	4%	0.0%	nt	Cc1ccc(C(=O)N2CCC3CC2c2cc(-c4ccc5c(c4)OCO5)ccc23)cc1 (stereo not given)
8	5%	?	?	-7	CCCN(CCC)CC(O)Cn1cc(/C=C/C(=O)c2cccs2)c2ccccc21 (stereo not given)
9	-1%	-1%	0.4%	-4	O=c1cc(O)c2c(=O)n(-c3ccccc3)c3c(c2o1)CCCCC3
10	nt	-1%	0.0%	nt	COc1ccc(S(=O)(=O)N2CCOCC2)cc1NC(=O)c1ccncc1
11	-10%	-1%	4.7%	2	O=C(O)c1ccc(CNCc2cccc(Cl)c2Cl)cc1
12	-8%	4%	-2.2%	-13	O=C(CN1CCN(Cc2ccccc2)CC1)N/N=C/C=C/c1ccccc1[N+](=O)[O-]
13	1%	4%	5.1%	15	Nn1c(SCC(=O)NC(=O)NC2CCCC2)nnc1-c1ccccc1F
14	-9%	-26%	-0.3%	nt	Cc1cccc(Cn2c(N3CCN(CCO)CC3)nc3c2c(=O)[nH]c(=O)n3C)c1
15	-6%	-17%	?	-5	COc1cccc(C2c3[nH]c4ccccc4c3CCN2Cc2cnn(C)c2)c1 (stereo not given)
16	-39%	-22%	-3.2%	-9	O=C(O)c1cccc(N/N=C/c2cn(-c3ccccc3)nc2-c2cccs2)c1
17	1%	-14%	6.2%	-4	COc1ccc(C)cc1NC(=O)CN1CCN(S(=O)(=O)c2ccc(C(C)C)cc2)CC1
18	-10%	24%	-3.3%	-6	CCCC(=O)c1ccc(N2CCN(C(=O)OCC)CC2)c(F)c1
19	-1%	-4%	0.1%	-4	Cc1ccc(NCC(=O)N/N=C/c2ccc(-c3cccc(C(F)(F)F)c3)o2)cc1
20	-61%	5%	1.4%	2	O=C(COC(=O)c1cc2ccccc2oc1=O)Nc1ccc(F)cc1F
21	nt	1%	8.6%	nt	Cc1ccc(-c2nn(-c3ccc(F)cc3)cc2C(=O)NCC(c2cccs2)N2CCOCC2)cc1 (stereo not given)
22	28%	7%	0.3%	-25	CSC1=C(C#N)C(c2ccccc2Cl)C(C(=O)c2cccs2)C(O)(C(F)(F)F)N1 (stereo not given)
23	nt	-8%	-2.3%	nt	COc1ccc(S(=O)(=O)Nc2ccc3c(c2)C(=O)N([C@H](C)CO)C[C@H](C)[C@@H](CN(C)C(=O)NC(C)C)O3)cc1
24	-3%	12%	-0.1%	-3	Cc1ccc(C(NC(=O)c2ccccc2)C(Cl)Cl)cc1 (stereo not given)

The closing 4 records of the section before open the next one.
nr	miR-21 reporter	Rango release inh	Rango complex inh	GLA inh pH 4.5	SMILES
21	nt	1%	8.6%	nt	Cc1ccc(-c2nn(-c3ccc(F)cc3)cc2C(=O)NCC(c2cccs2)N2CCOCC2)cc1 (stereo not given)
22	28%	7%	0.3%	-25	CSC1=C(C#N)C(c2ccccc2Cl)C(C(=O)c2cccs2)C(O)(C(F)(F)F)N1 (stereo not given)
23	nt	-8%	-2.3%	nt	COc1ccc(S(=O)(=O)Nc2ccc3c(c2)C(=O)N([C@H](C)CO)C[C@H](C)[C@@H](CN(C)C(=O)NC(C)C)O3)cc1
24	-3%	12%	-0.1%	-3	Cc1ccc(C(NC(=O)c2ccccc2)C(Cl)Cl)cc1 (stereo not given)
25	-6%	7%	-4.1%	-4	CCN1CCN(Cc2nc3c(c(=O)[nH]c(=O)n3C)n2Cc2ccccc2Cl)CC1
26	18%	-3%	-2.3%	nt	COc1cc(-c2nc(CCNC(=O)c3ccco3)cs2)cc(OC)c1OC
27	-1%	3%	0.1%	nt	Cc1cc(S(=O)(=O)N2CCOCC2)ccc1OCC(=O)NCCN1CCOCC1
28	nt	0%	-1.0%	nt	C[C@@H]1O[C@@H](OC[C@@H]2O[C@H](Oc3c(-c4ccc(O)cc4)oc4cc(O)cc(O)c4c3=O)[C@@H](O)[C@H](O)[C@H]2O)[C@H](O)[C@H](O)[C@H]1O
29	-14%	21%	-3.6%	0	COc1ccc(/C(=N\O)c2ncc(C(F)(F)F)cc2Cl)cc1
30	-7%	-12%	1.8%	-23	Cc1cccc(Nc2nc(N3CCCC3)nc(N3CCCC3)n2)c1
31	-7%	-4%	4.5%	-5	Cc1ccccc1OCCOCCN1CCCCCC1
32	5%	3%	-0.1%	-4	Cn1nc(C(F)(F)F)c(-c2ccccc2)c1NC(=O)c1cccnc1
33	nt	-9%	-0.9%	nt	Cn1c(=O)c2c(nc(CN3CCc4ccccc4C3)n2Cc2ccc(F)cc2)n(C)c1=O
34	-1%	-12%	2.2%	nt	CCOC(=O)N1CCN(C(=O)c2cc(OC)c(OC)c(OC)c2)CC1
35	0%	20%	1.1%	0	O=c1c2nnn(-c3ccc(Cl)cc3)c2ncn1Cc1ccccn1
36	-25%	8%	-2.0%	nt	COc1ccccc1C(=O)Nc1ccc2[nH]ncc2c1
37	-8%	-1%	0.2%	4	CC1=CC(C)(C)N(C(=O)CSc2nnc(N)s2)c2c(C)cc(C)cc21
38	-3%	-8%	-6.7%	1	Cc1cc(C)c[n+](C[n+]2cc(C)cc(C)c2)c1
39	4%	20%	0.7%	nt	Cc1ccc(C(=O)O)cc1NC(=S)NCCc1ccccc1
40	12%	1%	0.0%	-9	CC1CCN(S(=O)(=O)c2cc(C(=O)N3CCN(c4ncccn4)CC3)ccc2Br)CC1
41	10%	-19%	-4.6%	4	Cn1c(=O)c2c(nc(NN=C3CCCC3)n2C)n(C)c1=O
42	-13%	1%	-1.2%	nt	CNS(=O)(=O)c1cc(NC(=O)CCNC(=O)c2ccco2)ccc1C
43	1%	-4%	0.3%	nt	CCc1ccc(OCC(=O)NNC(=O)c2ccc(NC(=O)C3CC3)cc2)cc1
44	-2%	4%	4.4%	4	O=C(Nc1ccccc1N1CCN(C(=O)c2ccc(Cl)cc2)CC1)c1cc(Br)ccc1Cl
45	-8%	2%	4.2%	-16	COc1cccc(Cn2c(NCC(C)C)nc3c2c(=O)n(C)c(=O)n3C)c1
46	nt	-5%	-1.8%	nt	O=[N+]([O-])c1ccc(COc2ccc(CN3CCCC3)cc2)cc1
47	-3%	?	?	1	CCOC(=O)C1C(=O)C=C(/C=C/c2ccc(N(C)C)cc2)CC1c1ccccc1 (stereo not given)
48	-2%	24%	-0.3%	-3	CC1CCCC(C)N1C(=O)CSc1nnc(CSc2ncccn2)n1C (stereo not given)
49	1%	-18%	1.2%	0	CCOC(=O)C1CCN(C(=O)C(CC)c2ccccc2)CC1 (stereo not given)
50	3%	14%	2.0%	9	CCCCn1c(SCC(=O)Nc2cc(C)on2)nc2c1c(=O)n(C)c(=O)n2C
51	-6%	2%	?	3	CCOc1ccc(C(=O)NCc2ccncc2)cc1
52	-6%	-15%	-0.5%	9	CSc1nc(-c2ccc(Cl)cc2)c(C#N)c(=O)n1C
53	2%	-7%	-0.1%	-3	O=[N+]([O-])c1cc(Br)c(OCc2nnc(-c3ccccc3)o2)c(Br)c1
54	nt	-3%	-0.5%	nt	CC(=O)Nc1ccccc1-c1ccccc1[N+](=O)[O-]
55	-18%	-2%	-0.7%	nt	CC(=O)c1cc(C(=O)NC2CCCc3c2cnn3-c2cc(C)cc(C)c2)[nH]n1 (stereo not given)
56	25%	-11%	?	-12	COCCN=c1scc(-c2cc(OC)c(OC)c(OC)c2)n1/N=C/c1c(C)[nH]c2ccccc12
57	-23%	3%	-1.2%	nt	Cn1c(-c2ccccc2)cnc1NCc1ccc(F)cc1
58	-10%	1%	-0.8%	6	CCOC(=O)c1cc(NC(=O)CCC(=O)O)ccc1N1CCCCC1
59	2%	7%	-5.8%	-1	CCOc1ccc(Cn2nnc(C(=O)NCCc3ccc(Cl)cc3)c2N)cc1
60	-3%	0%	-0.8%	nt	O=C(CCNC(=O)C1CCN(S(=O)(=O)c2ccccc2)CC1)Nc1ccccc1
61	1%	-17%	6.7%	nt	CCC(C)N(C(=O)c1csnn1)C(C(=O)NC1CCCC1)c1ccccc1F (stereo not given)
62	-11%	1%	0.6%	4	N#Cc1c(-c2ccc(Cl)cc2)c2c([nH]c1=S)CCCC2
63	nt	6%	0.4%	nt	CC(C)(C)OC(=O)N1CCC(C(=O)Nc2ccc(C(=O)N3CCCCC3)cc2)CC1
64	nt	5%	0.4%	nt	NS(=O)(=O)c1cccc(NC(=O)CSc2nnc(-c3ccncc3)n2C2CC2)c1
65	2%	0%	0.3%	nt	Cc1nc(=O)c(-c2ccccc2)c(C)n1-c1cccc(/C=C/C(=O)O)c1
66	nt	-2%	1.3%	nt	CN(C(=O)COC(=O)c1ccc(Br)c(S(=O)(=O)N2CCOCC2)c1)C1CCCCC1
67	1%	-2%	1.2%	3	C[n+]1cn(CC(O)COCc2ccccc2)c2ccccc21 (stereo not given)
68	-2%	0%	1.3%	nt	COc1ccc(Cl)cc1S(=O)(=O)Nc1ccc(Cl)cn1
69	-12%	7%	1.0%	0	CCOC(=O)c1c(C)[nH]c(C)c1C(=O)COC(=O)c1ccc(OC)c(OC)c1
70	-4%	-6%	5.8%	-2	O=C(NCc1cccs1)C1CC(c2ccccc2O)=NO1 (stereo not given)
71	-11%	8%	-4.0%	-6	O=C(O)c1cccc(NC(=S)NC(NC(=O)c2ccco2)C(Cl)(Cl)Cl)c1 (stereo not given)
72	1%	-17%	0.4%	nt	N#Cc1ccc(COC(=O)c2cccnc2Cl)cc1
73	-4%	1%	1.6%	7	Cn1c(SCC(=O)N/N=C/c2ccncc2)nc2ccccc21
74	nt	-13%	0.4%	nt	COc1cccc2c(O)c(-c3ccccc3)c(=O)[nH]c12
75	nt	?	?	1	COC(=O)CCC(=O)OC1(C)C(=O)C=C2C=C(c3ccsc3)OC=C2C1=O (stereo not given)
76	nt	1%	-1.6%	nt	CSCCC(NC(=O)COc1ccccc1)C(=O)N(C)Cc1cccc(F)c1 (stereo not given)
77	0%&-4%	-1%	4.0%	nt	COCCNC(=O)Cn1nc(-c2ccccc2)c2ccccc2c1=O
78	2%	0%	5.2%	1	CSc1nc(C)cc(SCC(=O)Nc2ccccc2)n1
79	-3%	0%	-1.5%	2	Cc1ccc(N2C(=O)Nc3ccccc3C2(O)C(=O)N2CCN(c3ccccn3)CC2)cc1C (stereo not given)
80	nt	9%	-1.0%	nt	O=C(CNC(=O)c1ccc(Cl)cc1)NCc1ccccn1

The list continues:
nr	miR-21 reporter	Rango release inh	Rango complex inh	GLA inh pH 4.5	SMILES
81	-1%	-3%	-4.8%	-22	CCCCN(CCCC)C(=O)CSc1nnc(-c2cc(OC)c(OC)c(OC)c2)o1
82	-4%	11%	-2.7%	nt	O=C(CCC(=O)Nc1ccc(Br)cc1)N/N=C/c1ccccc1F
83	-15%	-3%	1.7%	24	N#Cc1c(N)nc(SCC(=O)NCCc2ccccc2)c(C#N)c1-c1cccs1
84	2%	-2%	-0.1%	nt	Cc1cc(S(=O)(=O)N2CCCCC2)ccc1OCC(=O)N1CCCC1

These rows are one share of the data, so the mix of outcomes need not match the whole.
